# Compound activity (PubChem BioAssay)
# Mtb bLac sens – beta-lactam sensitization of Mtb H37Rv, H37Rv; M. tuberculosis H37Rv growth with meropenem, percent inhibition; hits of this screen are not shown here; inhibition, % at 25 µM; 330,000 tested, 0.27% active;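 active means about 74% or more and at least 40 points above the plate without the antibiotic, then above 30% in a dose series; inconclusive means first-round hits that could not be retested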;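 further: growth measured after seven days incubation then overnight dye step; 0% = bacteria only wells and 100% = bacteria with antibiotic; twin plates without the antibiotic show which effects depend on it; some results filed as inactive read as strong as hits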
# The depositor's hits bear a star; ? = inconclusive. Only part of the results is shown; count on the stated rates, not on these rows.
Molecule	Mtb bLac sens
COc1ccc(Cc2nc3ccc(C(=O)NC(C)Cc4ncccc4C)cc3o2)cc1OC (centres undefined)	3.0
CCCCn1nc(C(=O)N(CCOC)c2c(N)n(CCCC)c(=O)[nH]c2=O)c2ccccc2c1=O	-6.5
NS(=O)(=O)c1ccc(NC(=O)c2ccc(Cl)c(S(=O)(=O)NCc3ccco3)c2)cc1	-9.8
Cc1sc2ncn(CC(=O)N3CCC(C(N)=O)CC3)c(=O)c2c1S(=O)(=O)N1CCOCC1	0.0
COc1ccc(-c2cc(C(=O)NC(C)c3ccccn3)c3ccccc3n2)cc1OC (centres undefined)	-6.2
O=C(O)c1cccc(S(=O)(=O)NCC2COc3ccccc3O2)c1 (centres undefined)	0.8
O=C(Cn1nc(C(=O)O)c2ccccc2c1=O)Nc1cc(Cl)cc(Cl)c1	-0.6
C[C@@H]1COC(=O)[C@@H](CC(=O)OC(C)(C)C)C/C=C\C[C@H](CC(=O)N(CCO)Cc2ccccc2)C(=O)N1	0.9
COCCn1c(SCC(=O)NC(=O)NC2CCCCC2)nc2ccccc2c1=O	1.4
CC(C)NC(=O)C(c1ccc(F)cc1)N(C(=O)CCC(=O)Nc1ccccn1)c1ccccc1F (centres undefined)	-2.5
CCOC(=O)N1CCN(c2ccc(S(=O)(=O)N3CCOCC3)cn2)CC1	-0.8
Cc1ccc(C(=O)NC(C)CCc2ccccc2)cc1S(=O)(=O)N1CCOCC1 (centres undefined)	-5.0
CN1CCN(S(=O)(=O)c2cccc(C(=O)N(C)Cc3c(F)cccc3Cl)c2)CC1	-3.4
CCC(=O)c1ccc(OCC(=O)NC2CCN(Cc3ccccc3)CC2)cc1	-7.0
COc1ccc(C(CNC(=O)CCNC(=O)c2ccccc2Cl)N2CCCC2)cc1 (centres undefined)	2.3
CC1CCCN(C(=O)c2cc(-c3ccco3)nc3ccccc23)C1 (centres undefined)	-3.3
C=CCSCC1Nc2cc(Cl)c(S(N)(=O)=O)cc2S(=O)(=O)N1 (centres undefined)	-3.9
COc1ccccc1OCC(=O)NCC1CCCN(Cc2cnn(C)c2C)C1 (centres undefined)	?
O=C(c1cccc(S(=O)(=O)N2CCOCC2)c1)N1CCN(C/C=C/c2ccccc2)CC1	-6.6
CCN(CC(=O)Nc1c(F)cccc1F)C(=O)c1ccc(S(=O)(=O)N2CCC(C)CC2)cc1	2.3
COc1ccc([C@@H]2CC=C(C(=O)O)[C@H](c3ccc(C(C)(C)C)cc3)N2S(=O)(=O)c2ccc(C)cc2)cc1OC	2.0
COC(=O)C1=C(C)NC(C)=C(C(=O)OCC2CCCO2)C1c1cccc(Br)c1 (centres undefined)	-5.1
Cc1cc(NC(=O)c2ccco2)sc1C	6.0
CC(c1ccccc1)N(C)CC(=O)NC(=O)NCCC1=CCCCC1 (centres undefined)	-7.8
CCOc1ccc(CN(C)C(=O)CCN2C(=O)c3ccccc3C2=O)cc1OC	-3.0
Cc1ccc(C(C)C)c(OCC(=O)N2CCN(CC(=O)N3CCOCC3)CC2)c1	-7.4
O=C(CN1C(=O)NC2(CCOc3ccccc32)C1=O)NCCc1ccc(F)cc1 (centres undefined)	5.0
CCCN1CCN(C(=O)c2oc3c(Cl)cccc3c2C)CC1	0.4
Cc1nc(N2CCN(S(=O)(=O)c3ccccc3C#N)CC2)c2c(-c3ccccc3)csc2n1	-8.6
COc1ccccc1NC(=O)COC(=O)c1ccc2ccccc2n1	77.2

# Next section; it opens with the two that closed the last part.
Molecule	Mtb bLac sens
Cc1nc(N2CCN(S(=O)(=O)c3ccccc3C#N)CC2)c2c(-c3ccccc3)csc2n1	-8.6
COc1ccccc1NC(=O)COC(=O)c1ccc2ccccc2n1	77.2
Cc1cccc(C)c1OCCCCN1CCNCC1	-1.7
CCOC(=O)N1CCN(C(=O)CN2C(=O)NC(C)(c3ccc4ccccc4c3)C2=O)CC1 (centres undefined)	-8.8
CCOC(=O)[C@H]1[C@H]2COc3ccc(Br)cc3[C@@H]2N2C(=O)c3c(C)cc(C)cc3NC(=O)[C@@]12C	-7.4
Cc1ccc(C)c(NC(=O)CN(C)C(=O)c2ccc3c(=O)n4c(nc3c2)CCC4)c1	-1.1
COC(=O)C1=C(c2ccc(C(C)=O)cc2)C[C@@H]2CC[C@H]1N2C(=O)NC1Cc2ccccc2C1	3.2
CC1(C)Oc2ccc3ccc(=O)oc3c2[C@H](O)[C@H]1O	0.9
CS(=O)(=O)c1ccc(Cl)c(C(=O)OCC(=O)NC2CCCCCCC2)c1	4.3
O=C(NNC(=O)c1ccc([N+](=O)[O-])cc1)c1ccc(NS(=O)(=O)c2cccs2)cc1	78.6
CCOc1ccccc1NC(=O)c1ccc(S(=O)(=O)N(C)c2ccccc2)cc1	-1.2
C[C@]12CCC3C(CC[C@H]4C[C@@H](O)CC[C@]34C)[C@H]1CC[C@H]2O (some centres undefined)	-3.0
NC(=O)c1cc([N+](=O)[O-])ccc1NCC1CCCCC1	-4.8
COC(=O)c1ccc(/C=C/C(=O)OCC(=O)Nc2sccc2C(N)=O)cc1	-1.4
Cc1cc(C)n2nc(C(=O)Nc3ccc4c(c3)OCCO4)nc2n1	-0.5
COc1ccc(OC)c(NC(=O)COC(=O)CC2CCCCC2)c1	-1.8
O=c1oc([C@@H](O)c2ccccc2)cc2ccccc12	2.8
CC(C)Cn1c(SCC(=O)O)nnc1-c1cccc(S(=O)(=O)N2CCOCC2)c1	-4.0
C[C@H]1CN=C(N(C)C)N1CC1CCC(C(C)(C)C)CC1 (some centres undefined)	-2.3
CSc1ncccc1C(=O)OCC(=O)NC1CCCc2ccccc21 (centres undefined)	1.0
O=C(Cn1[nH]c(=O)c2ccccc2c1=O)OCC(=O)c1ccc(F)cc1	-7.1
COc1ccc2oc(=O)c(C(=O)NC3CCCCCC3)cc2c1	3.5
COc1cc(CNC(=O)CCCCCCC(C)C)ccc1O	1.6
CCCCOc1ccc(C(=O)NCC(=O)N(C)Cc2nc3ccccc3c(=O)[nH]2)cc1	-9.0
Cc1ccc(C)c(N2N=C(C(=O)Nc3cccnc3)CCC2=O)c1	5.0
CCN(CC)C(=O)c1ccc(-c2nnc(Nc3ccc(C(=O)N(C)C)cc3)c3ccccc23)cc1	-14.4
COc1ccc(NC(=O)CC(C)c2ccccc2)cc1S(=O)(=O)N1CCOCC1 (centres undefined)	-8.7
COC(=O)c1c(NC(=O)CN(C)CC(=O)Nc2ccc(C)cc2)sc2c1CCC(C)C2 (centres undefined)	-4.1
O=c1c2ccccc2oc2ccc(-c3ccc4cc[nH]c4c3)cc12	1.3
N#Cc1ccc(OCC(=O)OCC(=O)Nc2sccc2C(N)=O)cc1	1.4
CCOC(=O)C1CCCN(C(=O)CN2C(=O)c3ccccc3S2(=O)=O)C1 (centres undefined)	-5.2
CCN(CC)C(=O)[C@H]1CC(CC(=O)NCCc2ccccn2)C(=O)N2CCc3c([nH]c4ccccc34)[C@]12C (some centres undefined)	-2.5
C#C[C@]1(O)[C@H](O)CC2C3CC[C@H]4C[C@@H](O)CC[C@]4(C)C3CC[C@@]21C (some centres undefined)	-1.5
Nc1c(C(=O)OCC(=O)Nc2cccc([N+](=O)[O-])c2)[nH]c(=O)[nH]c1=O	-2.0
COc1ccc(-c2nnn(Cc3ccccc3)n2)cc1OC	3.6
COC(=O)C1=C(C)NC(=O)NC1c1ccc2ccccc2c1 (centres undefined)	1.2
O=C(NCC(=O)N1CCN(c2ccc(C(F)(F)F)cn2)CC1)c1ccc(Br)o1	34.5
CN(CC(=O)Nc1ccc(F)cc1)C(=O)CN1C(=O)c2cccc([N+](=O)[O-])c2C1=O	7.3
COc1ccc(C2(C)NC(=O)N(CC(=O)c3cc(C)n(C4CC4)c3C)C2=O)cc1 (centres undefined)	3.5
COc1cc(/C=C/C(=O)OCC(=O)N2CCCc3ccccc32)ccc1OCC#N	-1.8
CCOc1cc(N2CCOCC2)c(OCC)cc1NC(=O)COC(=O)C1CCCN1S(=O)(=O)c1ccccc1F (centres undefined)	72.8
Cc1ccc(OCC(=O)NNC(=O)CCc2ccccc2)c(Br)c1	-2.6
CCOCCCNC(=O)C1c2ccccc2Oc2ccccc21	2.4
Cc1ccc(S(=O)(=O)N(C)C)cc1NC(=O)c1ccc(-n2cncn2)c([N+](=O)[O-])c1	-4.4
CSc1nc(N)nc2c1ncn2CC(=O)NCCCc1ccccc1	4.9
COc1ccc(-c2c(C#Cc3ccsc3)c3cc(-c4ccc5c(c4)OCCO5)ccc3n2C)cc1	4.5
COc1ccc(-c2sc3cc4c(cc3c2-c2ccc3c(c2)OCCO3)OCO4)cc1	-9.6
Cc1ccc(OCC(=O)N2CCN(S(=O)(=O)c3ccc4c(c3)OCCO4)CC2)c(C)c1	-2.1
O=C(COC(=O)c1cc(Cl)ccc1[N+](=O)[O-])NC1CC1	4.3
COC(=O)C1=C(c2ccc(OC)c(OC)c2)C[C@@H]2CC[C@H]1N2C(=O)NC(C)C	-1.2
CC(C)(C)C1CCC(=NNC(=O)C2COc3ccccc3O2)CC1 (centres undefined)	1.7
O=C(NCc1ccc(F)cc1)C1CCN(S(=O)(=O)c2ccc(Br)s2)CC1	1.5
COc1ccc(-c2nn(-c3ccccc3)cc2CNC[C@H]2O[C@@H](n3cnc4c(N)ncnc43)[C@H](O)[C@@H]2O)cc1	-3.5
CCc1cc(C(=O)N(CC)CC(=O)Nc2ccc(OC)cc2)sc1C	-5.8
CCN(CC(=O)NCc1cccs1)C(=O)c1ccc(S(=O)(=O)N(C)c2ccccc2)cc1	1.5
CC(=O)Nc1ccc(S(=O)(=O)NCCC(=O)NC(C)c2cccs2)cc1 (centres undefined)	-7.9
Cc1ccc(NC(=O)COc2ccc(Br)cc2CO)cc1S(=O)(=O)N1CCOCC1	6.0
CN(CC(=O)Nc1ccc(Cl)c(Cl)c1)C(=O)C1CCCC1	-9.9
CN(Cc1ccccc1)C(=O)c1ccccc1C(=O)OCC(=O)N(Cc1ccccc1)C(C)(C)C	-10.9
O=C(COC(=O)c1cccnc1Cl)Nc1ccc(N2CCCCC2)cc1	-2.9
O=C(O)c1ccc(Cl)c(S(=O)(=O)N2CCC(Cc3ccccc3)CC2)c1	3.1
O=C(Cn1[nH]c(=O)c2ccccc2c1=O)NCCN1C(=O)S/C(=C\c2ccccc2)C1=O	-4.9

# (more compounds)
Molecule	Mtb bLac sens
C[C@H](CO)N1C[C@H](C)[C@@H](CN(C)S(=O)(=O)c2cccs2)Oc2c(NC(=O)NC3CCCCC3)cccc2C1=O	-0.5
Nn1c(C2CCC2)nc2ccccc2c1=O	-7.0
CC(=O)Nc1ccc(C=NNc2ccc([N+](=O)[O-])cc2S(=O)(=O)Nc2ccccc2C(=O)O)cc1	-5.0
CC(OC(=O)CNC(=O)C1CCCCC1)C(=O)NCc1ccccc1 (centres undefined)	0.0
NCCc1ccc(S(=O)(=O)F)cc1	-2.0
Cc1cc(C)c(C)c(OCCCCN(C)Cc2ccccc2)c1	-3.6
CN1CCC(N(C)S(=O)(=O)c2ccc(NC(=O)COc3ccc(Cl)cc3)cc2)CC1	2.4
O=C1C=C(c2cccc(Cl)c2)C[C@@H](c2ccc3c(c2)OCO3)C1	19.5
CCC(C)N(C(=O)c1csnn1)C(C(=O)NCc1ccc(F)cc1)c1ccccc1 (centres undefined)	-0.4
Cn1cncc1C#Cc1ccc2cc(CCO)oc(=O)c2c1	-0.1
CC1CCCCN1C(=O)COC(=O)Cc1c[nH]c2ccccc12 (centres undefined)	-1.5
Cn1c(-c2ccc(C(F)(F)F)cc2)cc2onc(-c3ccccc3)c2c1=O	-9.8
COc1ccc(N(C)S(=O)(=O)c2cccc(C(=O)OCC(=O)N(C)c3ccccc3)c2)cc1	2.3
CN(C(=O)CSc1nc2ccc(Cl)cc2[nH]1)C1CCS(=O)(=O)C1 (centres undefined)	1.0
COc1ccc(CNC[C@H]2O[C@@H](n3cnc4c(N)ncnc43)[C@H](O)[C@@H]2O)cc1OC	0.0
O=C(OCC(=O)N1CCC(c2ccccc2)=N1)c1ccc(Cl)s1	94.8
Cc1ccc(S(=O)(=O)N(C)C)cc1NC(=O)c1cc(-c2ccncc2)nc2ccccc12	7.5
CN(CC(=O)Nc1c(Cl)cccc1Cl)C(=O)CNC(=O)c1ccco1	0.4
COc1ccccc1CN1CC(C(=O)NCc2cc(C)on2)CCC1=O (centres undefined)	?
OC(c1ccccc1)(c1ccccc1)C1CCN(C(=S)Nc2ccc(F)cc2)CC1	-5.0
CC(C)(C)OC(=O)C[C@@H]1C/C=C\C[C@@H](CC(=O)NCCO)C(=O)N[C@H](Cc2c[nH]c3ccccc23)COC1=O	0.3
COc1ccc(OCC(=O)OCC(=O)N2C(C)CCCC2C)cc1 (centres undefined)	29.6
Cc1cccc(NS(=O)(=O)c2ccc(C)c(C(=O)NCc3cccnc3)c2)c1	-8.3
O=C1CCCC/C=C\C[C@H](CC(=O)N(CCO)Cc2ccccc2)C(=O)NC[C@H](c2ccccc2)O1	-3.8
O=C(COC(=O)c1ccc(F)cc1F)NC(=O)Nc1ccc2c(c1)OCCO2	-1.6
O=C(c1ccccc1)c1ccc(C(=O)N2CCN(c3ccc(O)cc3)CC2)cc1	-4.9
O=C(O)c1ccccc1C(=O)Nc1ccc(S(=O)(=O)Nc2nccs2)cc1	-6.5

# 3 structures from above, arranged by count of non-hydrogen atoms, low to high.
Molecule	Mtb bLac sens
Cc1cc(C)c(C)c(OCCCCN(C)Cc2ccccc2)c1	-3.6
Cc1cccc(NS(=O)(=O)c2ccc(C)c(C(=O)NCc3cccnc3)c2)c1	-8.3
CN1CCC(N(C)S(=O)(=O)c2ccc(NC(=O)COc3ccc(Cl)cc3)cc2)CC1	2.4
